Screening data (PubChem BioAssay)
Sfp inh – qHTS Assay for Inhibitors of Bacillus subtilis Sfp phosphopantetheinyl transferase (PPTase) | Biochemical Sfp PPTase activity, qHTS | Potency, µM, for inactives: max response, negative = inhibition, usual class: inhibitors | 4'-phosphopantetheinyl transferase ffp (Bacillus subtilis), Q9F4F7 | 3.5% of 310,000 active; active = well fitted inhibition curve with a large enough effect; inconclusive = small, poorly fitted or top-dose-only effect, or another doubt; inactive = no such curve, though single readings can be large or run the other way;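 also: the enzyme is Sfp with the accession as filed and its product quenches rhodamine fluorescence; potency is read from the fitted curve at half-maximal effect; 0% = enzyme reaction without inhibitor and -100% = no enzyme wells; top concentration of the series not given in the record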
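With Hepes-Na pH 7.6 buffer containing 10 mM MgCl2, Sfp (15 nM) modified BHQ-2-YbbR (12.5 uM) using rhodamine-CoA (5 uM). Two reads 30 minutes apart at 525/598 nm yielded each well's rate.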
D2 ag – Beta-Arrestin HTS for Positive Allosteric Modulators of the Human D2 Dopamine Receptor: Agonists; D(2) dopamine receptor (Homo sapiens), P14416; DiscoveRx PathHunter D2 beta-arrestin, luminescence, 90 min; 100% = 57 uM dopamine signal; activation, % (test concentration not listed); 0.084% of 360,000 active; AID 624465, 2012; in the data active = activation above about 40%; inconclusive = about 15% to 40%; inactive = below about 15%; also: compound concentration not given in the record; the text of the record calls up to 30% inactive
Target sequence (P14416 whole entry, looked up): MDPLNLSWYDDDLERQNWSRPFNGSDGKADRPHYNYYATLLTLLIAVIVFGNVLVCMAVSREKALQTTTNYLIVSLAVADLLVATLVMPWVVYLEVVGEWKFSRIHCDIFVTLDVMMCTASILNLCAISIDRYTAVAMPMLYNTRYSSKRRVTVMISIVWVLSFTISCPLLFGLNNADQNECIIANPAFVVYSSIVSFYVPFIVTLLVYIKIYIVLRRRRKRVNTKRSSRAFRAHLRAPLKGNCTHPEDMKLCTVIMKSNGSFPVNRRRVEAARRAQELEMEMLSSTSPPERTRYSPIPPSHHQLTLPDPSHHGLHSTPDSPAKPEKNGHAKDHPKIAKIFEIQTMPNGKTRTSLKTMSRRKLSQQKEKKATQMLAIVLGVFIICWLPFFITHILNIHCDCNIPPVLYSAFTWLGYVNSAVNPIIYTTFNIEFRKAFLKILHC
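DiscoveRx PathHunter D2 beta-arrestin cells (2,100/well) attached overnight, then compound-stimulated 90 min at 37 C in HBSS/10 mM HEPES/0.1% Tween-20 buffer; beta-galactosidase complementation read by luminescence after 1 h at ambient temperature. Dopamine 57 uM final (EC100) as control.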
Six1-Eya2 blk – qHTS Assay for Inhibitors of the Six1/Eya2 Interaction. Homeobox protein SIX1 (Homo sapiens) + Protein phosphatase EYA2 (Homo sapiens), …. 0.56% of 360,000 active. AlphaScreen GST-Six1/His-Eya2 binding, biochemical; stronger effect = lower value; control for the full effect not named in the record. activity change, % (no concentration beside the values); in the data active = activity change below about -65%; inconclusive = about -30% to -65%; inactive = above about -30%; also: % is scaled to controls: 0 for no effect and ±100 for the full control effect; compound concentration not given in the record
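Six1/Eya2 binding was read as AlphaScreen signal after compounds were pinned into GST-Six1 plus His-tagged Eya2 (5X stock 250/500 nM) in pH 8.0 Tris/NaCl/TCEP buffer, beads added, then incubated 1 h, 37 C, dark.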
PINK1 expr mod – A Quantitative High throughput Screen to Identify Chemical Modulators of PINK1 Expression. Potency, µM (top dose mostly 76.6 µM), for inactives: at the top dose activation (PINK1 increase), usual class: activators. AID 624263, 2012. PINK1 immunofluorescence, high-content cytometry, 24 h. 0.2% of 410,000 active; active = well fitted activation curve with a large enough effect; inconclusive = small, poorly fitted or top-dose-only effect; inactive = flat fitted curve, though single readings scatter; cell line not stated here;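 also: potency is read from the fitted curve at half-maximal effect; % of control where 0% means no effect; nearly all actives have a fitted effect of over 65% in size; a mitochondrial uncoupler was the plate control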
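Stable cell line, 250 cells/well, 12 h attachment; compounds pinned at 5 concentrations, 24 h; CCCP control. Fixed with nuclear dye, primary antibodies 12 h at 10 degrees C, secondary plus cell stain; laser-scanning cytometer read.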
CtBP-E1A inh – qHTS Assay for Inhibitors of the CtBP/E1A Interaction | 0.49% of 340,000 active | AlphaScreen GST-E1A/His-CtBP binding, 1536-well; stronger effect = lower value; control for the full effect not named in the record | activity change, % (test concentration not listed) | CtBP / adenovirus E1A interaction (AlphaScreen); in the data active means activity change below about -65%; inconclusive means about -30% to -65%; inactive means above about -30%; also: % is scaled to controls: 0 for no effect and ±100 for the full control effect; compound concentration not given in the record
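GST-E1A and His-tagged CtBP (125 nM each as 5X stock) were preincubated with pin-transferred compound for 2 h at 37 °C in the dark, then glutathione donor and nickel acceptor beads were added for 1 h before AlphaScreen reading.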
TRPV1 PAM – HTS Assay for Compounds that Act as Potentiators of the Vanilloid Receptor 1. Transient receptor potential cation channel subfamily V member 1 (Homo sapiens), Q8NER1. TRPV1-expressing cells, Fluo-8 calcium influx, capsaicin EC20 potentiation; host cell line not named in the record; control for the full effect not named in the record. potentiation, % at 8.33 µM. 0.02% of 320,000 active. AID 540277, 2011; active means potentiation above 80%; inconclusive means 30% to 80%; inactive means below 30%; also: 0% is about no effect
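Cells expressing TRPV1 were dye-loaded with Fluo-8 and read kinetically: 10 s baseline, 3 min after compound (agonist portion), then 2 min after EC20 capsaicin (allosteric enhancer portion). Calcium-bound dye fluorescence at 480/520 nm.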
D2 PAM – Beta-Arrestin HTS for Positive Allosteric Modulators of the Human D2 Dopamine Receptor: Potentiators. AID 624464, 2012. DiscoveRx D2 beta-arrestin cells, luminescence, 90 min; 100% = 57 uM dopamine signal. 0.23% of 360,000 active. potentiation, % (no concentration beside the values). D(2) dopamine receptor (Homo sapiens), P14416; active = potentiation of 50% or more; inconclusive = 30% to 50%; inactive = 30% or less;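 also: compound concentration not given in the record; tested on top of an EC20 dose of dopamine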
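PathHunter D2 cells, attached overnight at 37 deg C, received compound in DMSO plus dopamine at EC20 (50 nM final) for 90 min at 37 deg C. Beta-arrestin recruitment was read as luminescence after 1 h with detection reagent at ambient temperature.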
Starred values were filed as active, the others as inactive; ? = inconclusive; nt = no result given; [ ] = another dose, or the depositor's remark. Not all compounds are listed (hit frequency here may not be typical).

SMILES | Sfp inh | D2 ag | Six1-Eya2 blk | PINK1 expr mod | CtBP-E1A inh | TRPV1 PAM | D2 PAM
Cc1cc(C=C2C(=O)NC(=O)NC2=O)c(C)n1-c1ccc2c(c1)OCO2 | -7% | 0.4 | 8 | 2.1% | 11 | 0 | -9
Cc1ncoc1C(=O)NCC1=C(c2ccc(S(C)(=O)=O)cc2)C[C@@H]2CC[C@H]1N2CCOc1ccccc1 | nt | -4.6 | 0 | 0.9% | 0 | nt | -14
CSC(=Nc1ccccc1)c1c(O)n(C)c(=O)n(C)c1=O | 56µM* | 0.9 | -2 | 2.5%[38.3 µM] | 2 | -3 | 8
CCn1cc(CN2CCCC(C(=O)c3sccc3C)C2)cn1 (configuration not stated) | 14% | -3.2 | 2 | 2.6% | 2 | 1 | -10
CC(=NCCN1CCOCC1)c1c(O)n(Cc2ccccc2)c(=O)[nH]c1=O | -44% | 0.8 | 4 | -1.2% | -5 | 17 | -6
CCCCNC(=O)NC(C(N)=O)P(=O)(OCC)OCC (configuration not stated) | 7% | -5.0 | 10 | 0.2% | 3 | 19 | -8
C/C(=N\Nc1ccccc1)c1c(O)n(C)c(=O)n(C)c1=O | ? | 7.9 | 11 | -0.4% | 0 | -8 | 5
COC(=O)C1=C(c2ccc(F)cc2OCc2ccccc2)C[C@@H]2CC[C@H]1N2C(=O)NCc1ccc(C(F)(F)F)cc1 | nt | 2.9 | -1 | 3.3% | -8 | nt | 5
COC(=O)C1=C(c2cccc(OCc3ccccc3)c2)C[C@@H]2CC[C@H]1N2C(=O)NCc1ccc(OC)c(OC)c1 | nt | -0.4 | -17 | -0.9% | -12 | 9 | -1
CN1CCN(c2c(N)c(=O)oc3ccccc23)CC1 | 11% | -1.9 | 1 | nt | 6 | -6 | -22
CCC(C)N1Cc2ccccc2C1=N (configuration not stated) | 11% | -1.6 | -3 | nt | -5 | 7 | 7
CCN(CC)CCN1Cc2ccccc2C1=N | 8% | -2.5 | 7 | -1.3% | -13 | 10 | 6
O=C1NC(=O)N(c2cccc(Br)c2)C(=O)/C1=C/c1ccsc1 | 20µM* | 6.3 | -1 | 5.2% | 10 | 2 | 7
C=Cc1ccc(Cn2c(C(=O)O)c(C=O)c3ccccc32)cc1 | 26% | -2.2 | -1 | -0.3% | -8 | -9 | 2
N#Cc1cc2c(nc1SCC(=O)Nc1cc(Cl)cc(Cl)c1)C1CCN2CC1 | 21% | -0.1 | 2 | ? | 6 | -6 | -3
C#C[C@]1(O)CCC2C3C(=O)C=C4C=CCC[C@]4(C)C3CC[C@@]21C (some centres not stated) | nt | 3.3 | -2 | 4.6% | 2 | nt | -3
CCC1CN1P(=O)(Oc1ccc(Cl)cc1)N1CC1CC (configuration not stated) | nt | -3.7 | 5 | 1.0% | 8 | nt | -12
CC(=NCCCn1ccnc1)c1c(O)n(-c2ccccc2)c(=O)[nH]c1=O | 16% | -4.3 | 2 | 7.8% | 2 | 26 | -2
O=C1CN(O)C(c2ccccc2)=c2cc(Br)ccc2=N1 | 13% | 11 | 2 | 1.6% | 1 | 10 | 2
CCN1CCN(C(=O)Cc2ccc(C)cc2)CC1 | -3% | -4.3 | 6 | -0.9% | -3 | 4 | -7
C[C@H]1COc2cccc(N3CCN(C)CC3)c2S(=O)(=O)N1 | nt | nt | 13 | 0.8% | -3 | nt | nt
O=C1CN(O)C(c2ccccc2Cl)=c2cc(Br)ccc2=N1 | 4% | -4.5 | 10 | 1.3% | nt | -5 | -8
CCOP(=O)(OCC)C(NC(=O)CC(C)C)C(Cl)(Cl)Cl (configuration not stated) | 9% | -1.7 | 5 | 3.7% | 14 | 3 | 6
O=C(NCc1ccc(C(=O)N2CCC3(CC2)OCCO3)cc1)c1cccc(Br)c1 | 3% | -0.9 | -1 | 15%[38.3 µM] | 2 | -38 | -13
COC(=O)C1=C(c2cccc(OC)c2OC)C[C@@H]2CC[C@H]1N2C(=O)NCCS(C)=O (some centres not stated) | nt | 1.9 | 1 | -0.2% | nt | nt | -1
CCC(=O)c1cn(Cc2ccccc2C#N)c2ccccc12 | 3% | -1.0 | 4 | 6.6% | 12 | 20 | 0
CCOc1ccc(Cl)cc1CNCCc1ccccc1F | ? | -3.4 | 12 | 5.2% | 6 | -5 | -10
O=S(=O)(c1ccc(Cl)cc1)N1CC1c1ccccc1 (configuration not stated) | 17% | -5.2 | 8 | 5.5% | 0 | -2 | -13
O=C(Nc1nc(-c2ccccc2)c(-c2ccccc2)s1)c1ccc(S(=O)(=O)N(CCCl)CCCl)cc1 | 23% | 1.0 | -2 | 8.1% | 7 | -8 | 0
Cc1ccc2c(c1)N(CCC(=O)N1CCC3(CC1)OCCO3)C(=O)CO2 | 4% | -1.4 | 0 | 0.3% | 1 | 6 | -2
Cc1cc(NC(=O)COC(=O)c2c(C)nn(Cc3ccccc3)c2C)no1 | -12% | -1.6 | 1 | -0.2% | -2 | -10 | -12
CC(C)(C)NC(=S)N1CCn2cccc2C1c1cccnc1 (configuration not stated) | 5% | -7.2 | 18 | -0.3% | -9 | 4 | -7
CC(/C=C(\C)Nc1ccccc1)=Nc1ccccc1 | 8% | -4.1 | -4 | -0.9% | -5 | -1 | 9
C=CCN(CC=C)C(=O)Nc1ccc(OCC)cc1 | 0% | -1.5 | 6 | 2.8% | 1 | 0 | -8
COc1ccc(N2C(=O)NC(=O)/C(=C/c3ccc([N+](=O)[O-])s3)C2=O)cc1 | 25µM* | -0.9 | -73* | 0.2% | nt | ? | -13
O=C(COC(=O)Cc1ccccc1)Nc1ccc(F)cc1 | 18% | -1.4 | 6 | 6.8% | 1 | -11 | 5
NS(=O)(=O)c1ccc(N=Nc2c(O)[nH]c(=S)[nH]c2=O)cc1 | -8% | -9.7 | -2 | -0.2% | 11 | -8 | -20
Cc1oc(-c2ccccc2F)nc1CS(=O)CC(=O)N1CCC2(CC1)OCCO2 (configuration not stated) | 7% | 0.2 | 7 | nt | -2 | 3 | -4
O=C(c1cc(S(=O)(=O)N2CCOCC2)ccc1F)N1CCC2(CC1)OCCO2 | 2% | -1.9 | -1 | 3.6%[38.3 µM] | 2 | 8 | -10
COc1ccc2c(c1)CC1(CN2C)C(=O)NC(=O)N(CCc2ccccc2)C1=O (configuration not stated) | -6% | 2.3 | -2 | 2.8%[38.3 µM] | -2 | -5 | 12
C[C@]12CC[C@@H](O)CC1=CC(=O)C1C2CC[C@]2(C)C(=O)CCC12 (some centres not stated) | nt | 3.9 | -2 | -3.6% | 4 | nt | -4
CC12CC[C@H]3[C@@H](CCC4(O)C[C@H](O)CCC34/C=N/NC(=O)c3ccccc3O)C1(O)CCC2C1=CC(=O)OC1 (some centres not stated) | 1% | -3.2 | -8 | -1.7% | -5 | -10 | -9
CCCCOP(=O)(c1ccc(N(C)C)cc1)C(Nc1ccccc1)c1ccccc1 (configuration not stated) | -23% | -1.9 | ? | ? | -28 | 10 | 0
CCOc1ccccc1C1SCC(=O)Nc2c1c(=O)[nH]n2C(CC)CC (configuration not stated) | 10% | -1.2 | -1 | -0.2% | 3 | 3 | 1
COC(=O)C1=C(c2ccc(OCc3ccccc3)cc2)C[C@@H]2CC[C@H]1N2C(=O)NCc1ccc2c(c1)OCO2 | nt | -7.3 | -9 | 0.3% | -11 | nt | -1

Rewritten as a markdown table: six of the compounds above.
| mol | Sfp inh | D2 ag | Six1-Eya2 blk | PINK1 expr mod | CtBP-E1A inh | TRPV1 PAM | D2 PAM |
| --- | --- | --- | --- | --- | --- | --- | --- |
| C=CCN(CC=C)C(=O)Nc1ccc(OCC)cc1 | 0% | -1.5 | 6 | 2.8% | 1 | 0 | -8 |
| COc1ccc(N2C(=O)NC(=O)/C(=C/c3ccc([N+](=O)[O-])s3)C2=O)cc1 | 25µM* | -0.9 | -73* | 0.2% | nt | ? | -13 |
| O=C(COC(=O)Cc1ccccc1)Nc1ccc(F)cc1 | 18% | -1.4 | 6 | 6.8% | 1 | -11 | 5 |
| NS(=O)(=O)c1ccc(N=Nc2c(O)[nH]c(=S)[nH]c2=O)cc1 | -8% | -9.7 | -2 | -0.2% | 11 | -8 | -20 |
| Cc1oc(-c2ccccc2F)nc1CS(=O)CC(=O)N1CCC2(CC1)OCCO2 (configuration not stated) | 7% | 0.2 | 7 | nt | -2 | 3 | -4 |
| O=C(c1cc(S(=O)(=O)N2CCOCC2)ccc1F)N1CCC2(CC1)OCCO2 | 2% | -1.9 | -1 | 3.6%[38.3 µM] | 2 | 8 | -10 |

Further entries:
SMILES | Sfp inh | D2 ag | Six1-Eya2 blk | PINK1 expr mod | CtBP-E1A inh | TRPV1 PAM | D2 PAM
Cn1c(O)c(/C=N/NC(=O)c2ccncc2)c(=O)[nH]c1=S | -13% | 12 | -14 | -0.5% | nt | -31 | 3
CCC(=Nc1ccc2c(c1)CCC2)c1c(O)n(C2CCCCC2)c(=O)[nH]c1=O | -11% | -1.9 | 20 | 0.2% | 0 | ? | -13
Cc1c(C=O)c2ccccc2n1Cc1ccccc1 | -2% | 1.0 | -2 | 0.7% | 10 | 2 | -7
C/C=C1\NC(=O)[C@@H](NC(=O)[C@H](CCc2ccc(O)cc2)NC(=O)[C@H](C)NC(=O)[C@H](O)CO)[C@@H](C)OC(=O)[C@H](C(C)C)NC(=O)[C@H](Cc2ccc(O)cc2)N(C)C(=O)[C@H](Cc2ccccc2)N2C(=O)C(CC[C@H]2O)NC1=O (some centres not stated) | nt | -2.1 | 8 | -0.1% | 0 | nt | nt

Single entries from the results shown.
CCC(=Nc1ccc2c(c1)CCC2)c1c(O)n(C2CCCCC2)c(=O)[nH]c1=O in D2 PAM is entered as -13
Cc1c(C=O)c2ccccc2n1Cc1ccccc1 in CtBP-E1A inh is entered as 10
